NOMO-1 viab – NOMO-1 AML cell viability reduction, primary screen, STK33 inhibitor project, CellTiter-Glo luminescence; NOMO-1 AML viability, 72 h; AID 2330, 2010; hit rate 7.5% among 37,000; inhibition, % (no concentration beside the values);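 active = most replicates above 80%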;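 also: wells of about 30 µL received 25 nL stock; 0% = median of vehicle wells and 100% = reference inhibitor level; the first replicate is given; inactives centre near 10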
* = called active by the depositor.

SMILES	NOMO-1 viab
COc1ccc(NC(=O)N(C)C[C@H]2Oc3ccc(NC(=O)CCN4CCOCC4)cc3CC(=O)N([C@H](C)CO)C[C@H]2C)cc1	-12
CC(C)NC(=O)Nc1cccc2c1O[C@@H](CN(C)S(=O)(=O)c1ccc(F)cc1)[C@@H](C)CN([C@@H](C)CO)C2=O	-5
COc1cc(C2OCC3C(c4cc(OC)c(OC)c(OC)c4)OCC23)cc(OC)c1OC (stereo unspecified)	-7
O=C(O)c1cccc(NS(=O)(=O)c2cccc(S(=O)(=O)c3ccc(Cl)c(Cl)c3)c2)c1	-3
Cc1ccc(NC(=O)CSc2nc(N)cc(=O)[nH]2)cc1Cl	2
Cc1cc(C)c(CN(C)C)c(O)c1	15
Cn1nnnc1SCC(=O)Nc1cccc(Cl)c1Cl	-5
COc1ccc(NC(=O)N(C)C[C@@H]2Oc3ccc(NS(=O)(=O)c4ccc(Cl)cc4)cc3C(=O)N([C@@H](C)CO)C[C@H]2C)cc1	2
C[C@@H]1CN([C@@H](C)CO)C(=O)c2cccc(NS(C)(=O)=O)c2O[C@@H]1CN(C)Cc1ccc(Oc2ccccc2)cc1	29
C[C@@H]1CN([C@@H](C)CO)C(=O)c2cc(NC(=O)NC3CCCCC3)ccc2O[C@@H]1CN(C)C	-17
C[C@H](CO)N1C[C@H](C)[C@@H](CN(C)C(=O)Nc2ccc(C(F)(F)F)cc2)Oc2ccc(NC(=O)C3CC3)cc2C1=O	-19
Cc1ccc(S(=O)(=O)N(C)C[C@@H]2Oc3ccc(NC(=O)NC4CCCCC4)cc3CC(=O)N([C@@H](C)CO)C[C@@H]2C)cc1	116*
Cc1noc(C)c1NC(=O)N(C)C[C@@H]1Oc2ccc(NC(=O)CCC(F)(F)F)cc2C(=O)N([C@H](C)CO)C[C@H]1C	-19
CNC[C@H]1Oc2c(NC(=O)C3CCOCC3)cccc2C(=O)N([C@H](C)CO)C[C@H]1C	20
C[C@H](CO)N1C[C@H](C)[C@H](CN(C)Cc2ccc(Cl)c(Cl)c2)Oc2ccc(NC(=O)Nc3ccc4c(c3)OCO4)cc2CC1=O	94*
Cc1ccccc1NC(=O)CSc1n[nH]c(-c2ccncc2)n1	-5
C[C@H]1CN([C@@H](C)CO)C(=O)Cc2cc(NS(=O)(=O)c3ccc(F)cc3)ccc2O[C@@H]1CN(C)Cc1ccc(C(F)(F)F)cc1	90*
O=C(CSc1nnc2scc(-c3ccccc3)n12)Nc1nsc(-c2ccc(Cl)cc2)n1	33
Cc1noc(C)c1NC(=O)N(C)C[C@@H]1Oc2ccc(NC(=O)C3CC3)cc2C(=O)N([C@@H](C)CO)C[C@@H]1C	-2
C[C@H]1CN([C@@H](C)CO)C(=O)Cc2cc(NC(=O)Nc3ccccc3)ccc2O[C@@H]1CN(C)Cc1ccc(C(=O)O)cc1	3
CCOC(=O)c1c(C)oc2ccc(OCc3cc(C(=O)OC)oc3C)cc12	-5
CC1=CC(=O)OC1Cc1ccc2ccccc2n1 (stereo unspecified)	31
Cc1noc(C)c1S(=O)(=O)Nc1ccc2c(c1)C(=O)N([C@H](C)CO)C[C@H](C)[C@H](CN(C)S(=O)(=O)c1cccs1)OCCCC[C@@H](C)O2	12
C[C@@H]1CN([C@@H](C)CO)C(=O)c2cc(NS(C)(=O)=O)ccc2O[C@H]1CN(C)Cc1ccc(Oc2ccccc2)cc1	41
C[C@@H]1CN([C@H](C)CO)C(=O)c2cccc(NS(C)(=O)=O)c2O[C@@H]1CN(C)C(=O)NC1CCCCC1	-16
C[C@@H]1CN([C@H](C)CO)C(=O)Cc2cc(NS(=O)(=O)c3cccs3)ccc2O[C@H]1CN(C)CC1CC1	17
O=C1C[C@@H](c2ccc(O)cc2)Oc2cc(O)cc(O)c21	8
CCn1c(SCC(=O)Nc2cccc(Cl)c2C)nnc1-c1ccc(Br)cc1	19
COc1ccc(OC)c(S(=O)(=O)N(C)CC(=O)Nc2ccc3c(c2)OCCO3)c1	5
O=C(CCC1COc2ccccc2O1)Nc1ncc(C(F)(F)F)cc1Cl (stereo unspecified)	23
C[C@H]1CN([C@@H](C)CO)C(=O)c2cc(NC(=O)C3CC3)ccc2O[C@H]1CN(C)S(=O)(=O)c1ccc(F)cc1	17
COc1ccccc1NC(=O)c1ccc(NC(=O)C2COc3ccccc3O2)cc1 (stereo unspecified)	3
COc1ccc(S(=O)(=O)N(C)C[C@H]2OCCCC[C@@H](C)Oc3ccc(NC(=O)c4ccncc4)cc3C(=O)N([C@H](C)CO)C[C@@H]2C)cc1	-5
COc1ccc(CN(C)C[C@@H]2Oc3ccc(NS(=O)(=O)c4c(C)noc4C)cc3C(=O)N([C@@H](C)CO)C[C@H]2C)cc1	-1
C[C@H]1CN([C@@H](C)CO)C(=O)Cc2cc(NS(=O)(=O)c3ccc(F)cc3)ccc2O[C@H]1CN(C)Cc1ccc(C(F)(F)F)cc1	34
COc1ccc(S(=O)(=O)Nc2ccc3c(c2)C(=O)N([C@@H](C)CO)C[C@H](C)[C@@H](CN(C)Cc2ccccc2)O3)cc1	27
C[C@H]1CN([C@@H](C)CO)C(=O)c2cccc(NS(=O)(=O)c3ccccc3)c2O[C@H]1CN(C)C(=O)NC1CCCCC1	10
CC(Oc1ccccc1F)C(=O)Nc1ccccc1[N+](=O)[O-] (stereo unspecified)	8
COc1ccc(NC(=O)Nc2ccc3c(c2)C(=O)N([C@H](C)CO)C[C@H](C)[C@H](CN(C)CC2CC2)OCCCC[C@@H](C)O3)cc1	-2
COc1ccc(C(=O)NC(c2ccccc2)c2ccccc2)cc1	32
Cc1ccc(NS(=O)(=O)c2cc(C(=O)NCC3CCCO3)ccc2Cl)c(C)c1 (stereo unspecified)	-10
C[C@@H]1CCCCO[C@H](CN(C)C(=O)CCCN(C)C)[C@@H](C)CN([C@H](C)CO)C(=O)c2cc(NS(=O)(=O)c3ccc(F)cc3)ccc2O1	31
C[C@H](CO)N1C[C@H](C)[C@H](CN(C)Cc2ccc(Cl)c(Cl)c2)Oc2ccc(N(C)C)cc2C1=O	38
C[C@H]1CN([C@@H](C)CO)C(=O)c2cc(NC(=O)Nc3ccc4c(c3)OCO4)ccc2O[C@@H]1CN(C)S(=O)(=O)c1ccc(Cl)cc1	3
C[C@H]1CN([C@@H](C)CO)C(=O)c2cc(NS(=O)(=O)c3ccc(Cl)cc3)ccc2O[C@@H]1CN(C)Cc1ccccc1	13
C[C@@H]1CN([C@H](C)CO)C(=O)c2cccc(NC(=O)c3nc4ccccc4s3)c2O[C@H]1CN(C)S(C)(=O)=O	15
C[C@@H]1CN([C@@H](C)CO)C(=O)c2cccc(NC(=O)C3CCCCC3)c2O[C@@H]1CN(C)C	2
C[C@@H]1C[C@@H](O)C2[C@@](C)(CO)CCC[C@]2(C)[C@@]1(O)CCc1ccoc1 (stereo partly specified)	26
C[C@H]1CN([C@@H](C)CO)C(=O)Cc2cc(NS(=O)(=O)c3ccc(F)cc3)ccc2O[C@H]1CN(C)S(=O)(=O)c1cccs1	8
C[C@@H]1CN([C@@H](C)CO)C(=O)c2cc(NS(=O)(=O)c3cn(C)cn3)ccc2O[C@H]1CN(C)S(=O)(=O)c1cn(C)cn1	14
O=C(c1ccc(Br)cc1)c1cc2c(cc1Br)OCCCO2	20
C[C@@H]1CN([C@H](C)CO)C(=O)c2cccc(NS(=O)(=O)c3ccccc3)c2O[C@@H]1CN(C)Cc1ccncc1	-10
CNC[C@H]1Oc2ccc(NS(=O)(=O)c3c(C)noc3C)cc2CC(=O)N([C@@H](C)CO)C[C@@H]1C	1
CCN(CC(=O)Nc1cccc([N+](=O)[O-])c1)S(=O)(=O)c1ccc(Cl)cc1	-3
COc1ccc(CN(C)C[C@@H]2Oc3c(NC(=O)Nc4cccc5ccccc45)cccc3C(=O)N([C@H](C)CO)C[C@@H]2C)cc1	34
COc1ccc(OC(C)C(=O)Nc2cc([N+](=O)[O-])ccc2C)cc1 (stereo unspecified)	49
C[C@H](CO)N1C[C@H](C)[C@H](CN(C)C)Oc2ccc(NC(=O)Cn3cnnn3)cc2C1=O	21
Cc1c(C(N)=O)sc2ncn(CC(=O)Nc3cc(Cl)ccc3Cl)c(=O)c12	-1
CC1CCC2C(C)(C)[C@@H](O)CC[C@]2(C)C12Cc1c(O)cc3c(c1O2)CN(C(CCC(=O)O)C(=O)O)C3=O (stereo partly specified)	1
CS(=O)(=O)N(CC(=O)NC1CCCC1)c1cccc(F)c1	6
(continued)
SMILES	NOMO-1 viab
O=C1Oc2cc(O)cc(O)c2[C@@H](c2ccc(O)cc2)[C@H]1[C@H]1C(=O)Oc2cc(O)cc(O)c2[C@H]1c1ccc(O)cc1	19
Cc1noc(C)c1NC(=O)Nc1ccc2c(c1)C(=O)N([C@H](C)CO)C[C@H](C)[C@H](CN(C)S(=O)(=O)c1ccc(F)cc1)OCCCC[C@@H](C)O2	15
CC(C)NC(=O)Nc1cccc2c1O[C@H](CN(C)S(=O)(=O)c1ccc(Cl)cc1)[C@H](C)CN([C@@H](C)CO)C2=O	7
C[C@H](CO)N1C[C@H](C)[C@@H](CN(C)S(=O)(=O)c2ccc(F)cc2)Oc2ccc(NS(=O)(=O)c3ccccc3)cc2C1=O	-12
C[C@H](CO)N1C[C@H](C)[C@@H](CN(C)Cc2ccc(C(=O)Nc3ccccc3N)cc2)Oc2c(NS(=O)(=O)c3ccc(Cl)cc3)cccc2C1=O	51
COc1cccc(OCC(=O)Nc2ccc(-c3nc4ccccc4[nH]3)cc2)c1	1
Cc1ccc(S(=O)(=O)N(C)C[C@@H]2OCCCC[C@@H](C)Oc3ccc(NS(=O)(=O)c4c(C)noc4C)cc3C(=O)N([C@H](C)CO)C[C@@H]2C)cc1	54
Cc1noc(C)c1S(=O)(=O)Nc1ccc2c(c1)CC(=O)N([C@@H](C)CO)C[C@H](C)[C@H](CN(C)C(=O)NC(C)C)O2	-3
COc1ccc(Nc2nc(N)nc(COc3ccc(OC)cc3)n2)cc1	-9
CS(=O)(=O)N(CC(=O)NC1CCCC1)c1ccc(F)c(Cl)c1	12
CCOC(=O)CC1Sc2ccccc2N=C1SCCS(=O)(=O)c1ccc(Cl)cc1 (stereo unspecified)	71
C[C@@H]1CN([C@@H](C)CO)C(=O)Cc2cc(NC(=O)Nc3cccc4ccccc34)ccc2O[C@@H]1CN(C)Cc1ccc(Cl)c(Cl)c1	129*
Cn1c(=O)c2c(ncn2CC(=O)Nc2ccc(Br)cc2F)n(C)c1=O	8
C[C@@H]1CN([C@@H](C)CO)C(=O)Cc2cc(NS(=O)(=O)c3ccccc3)ccc2O[C@@H]1CN(C)CC1CC1	20
O=C(CNC(=O)c1ccco1)Nc1cccc(C(F)(F)F)c1	-9
C[C@@H]1CN([C@H](C)CO)C(=O)Cc2cc(NC(=O)Nc3cccc4ccccc34)ccc2O[C@@H]1CN(C)S(C)(=O)=O	3
O=C(CN1C(=O)c2cccc3cccc1c23)Nc1cccc([N+](=O)[O-])c1	-2
Cc1cc(I)cc(C)c1NC(=O)CSc1nnnn1-c1ccccc1	6
Cc1noc(C)c1S(=O)(=O)Nc1ccc2c(c1)CC(=O)N([C@@H](C)CO)C[C@H](C)[C@@H](CN(C)Cc1ccncc1)O2	-8
C[C@H](CO)N1C[C@H](C)[C@H](CN(C)Cc2ccncc2)Oc2ccc(NC(=O)Cc3ccccc3)cc2CC1=O	-5
C[C@H](CO)N1C[C@H](C)[C@H](CN(C)C(=O)Nc2ccc(F)cc2)Oc2ccc(NC(=O)Cn3cnnn3)cc2C1=O	-11
C[C@@H]1CN([C@H](C)CO)C(=O)Cc2cc(N(C)C)ccc2O[C@@H]1CN(C)Cc1ccc(C(=O)Nc2ccccc2N)cc1	140*
C[C@@H]1CN([C@@H](C)CO)C(=O)Cc2cc(NC(=O)Cn3cnnn3)ccc2O[C@@H]1CN(C)Cc1ccc(Oc2ccccc2)cc1	18
COc1ccc(NC(=O)N(C)C[C@@H]2OCCCC[C@@H](C)Oc3ccc(NC(=O)NC(C)C)cc3C(=O)N([C@H](C)CO)C[C@@H]2C)cc1	24
COc1ccc(S(=O)(=O)Nc2ccc3c(c2)C(=O)N([C@H](C)CO)C[C@H](C)[C@@H](CN(C)S(C)(=O)=O)O3)cc1	11
COc1ccc(-n2c(SCC(=O)Nc3cccc(C)c3C)nnc2-c2ccccc2)cc1	-4

Some of the compounds tested, so the mix of outcomes need not match the whole.
